Screening results (PubChem)
FGF22 binding – binders of recombinant human FGF22 by thermal shift; Q9HCT0; SYPRO orange fluorescence; percent of sucrose octasulfate shift, DMSO zero; calls only at 9.99 µM; 340,000 compounds, 1.5% hits; AID 651658;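 active = melting point raised past a set limit in the mean and every replicate; three in four hits are not shown here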
Target sequence (Q9HCT0 whole entry, looked up): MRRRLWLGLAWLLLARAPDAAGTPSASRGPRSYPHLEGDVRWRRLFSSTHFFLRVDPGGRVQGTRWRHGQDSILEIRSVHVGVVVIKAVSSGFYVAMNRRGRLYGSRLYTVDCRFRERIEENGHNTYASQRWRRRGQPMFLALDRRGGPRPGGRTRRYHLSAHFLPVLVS
Calls only; i = inactive; + = active, no number.

Structure,FGF22 binding
CC(C)(C)[S@](=O)N1Cc2cc(C(=O)NCc3ccncc3)nc(-c3cccc(-c4cccc(C#N)c4)c3)c2[C@@H]1CCO,i
Cc1noc(C)c1NC(=O)Nc1ccc2c(c1)CC(=O)N([C@H](C)CO)C[C@H](C)[C@@H](CN(C)S(=O)(=O)c1ccccc1)O2,i
CN(C)CC#Cc1ccc([C@@H]2[C@H](CO)N3CCCCN(C(=O)Nc4ccccc4F)C[C@@H]23)cc1,i
CC(C)C#Cc1cnc2c(c1)C(=O)N([C@H](C)CO)C[C@H](C)[C@@H](CN(C)C(=O)Nc1ccccc1)O2,i
CC(C)CC#Cc1cnc2c(c1)C(=O)N([C@H](C)CO)C[C@H](C)[C@@H](CN(C)C(=O)c1ccc(F)cc1)O2,i
O=C(Nc1ccc(F)cc1)N[C@H]1CC[C@H](CCn2cc(C3(O)CCCC3)nn2)O[C@H]1CO,i
COc1cccc(-c2ccc([C@H]3[C@H]4CN(C(=O)c5ccc6c(c5)OCO6)CCCCN4[C@H]3CO)cc2)c1,i
N#Cc1cccc(-c2ccc3c(c2)[C@@H]2[C@@H](CCN2Cc2cncnc2)[C@@H](CO)N3)c1,i
C[C@@H]1CN([C@@H](C)CO)C(=O)c2cccc(NC(=O)C3CCOCC3)c2O[C@@H]1CN(C)S(=O)(=O)c1cccs1,i
O=C(C[C@@H]1CC[C@H]2[C@@H](COC[C@H](O)CN2C(=O)Cc2ccccc2)O1)NC1CCC1,i
C[C@H](CO)N1C[C@H](C)[C@@H](CN(C)C(=O)C2CCCCC2)Oc2ncc(C3=CCCC3)cc2C1=O,i
Cc1noc(C)c1NC(=O)N(C)C[C@H]1Oc2ccc(NC(=O)Nc3ccc(C(F)(F)F)cc3)cc2C(=O)N([C@@H](C)CO)C[C@H]1C,i
COc1cccc(-c2cnc3c(c2)C(=O)N([C@@H](C)CO)C[C@H](C)[C@@H](CN(C)Cc2ccc(F)cc2)O3)c1,i
Cc1ccc(S(=O)(=O)N(C)C[C@@H]2OCCCC[C@@H](C)Oc3ccc(NS(=O)(=O)c4ccc(Cl)cc4)cc3C(=O)N([C@H](C)CO)C[C@@H]2C)cc1,i
C[C@@H]1CN([C@@H](C)CO)C(=O)c2cc(C3=CCCCC3)cnc2O[C@H]1CN(C)C(=O)Cc1ccncc1,i
CN1C(=O)c2cc(NS(=O)(=O)c3ccc(F)cc3)ccc2OC[C@@H]2O[C@@H](CC(=O)O)CC[C@H]21,i
C[C@H](CO)N1C[C@H](C)[C@H](CN(C)S(=O)(=O)c2ccccc2)OCCCC[C@H](C)Oc2ccc(NS(=O)(=O)c3ccc(Cl)cc3)cc2C1=O,i
C/C=C/c1ccc2c(c1)O[C@@H](CN(C)C(=O)NC1CCCCC1)[C@H](C)CN([C@@H](C)CO)S2(=O)=O,i
O=C(N[C@@H]1CC[C@@H](CCNC(=O)C2CCCCC2)O[C@@H]1CO)c1ccncc1,i
CO[C@@H]1CN(C)C(=O)c2cc(NS(=O)(=O)c3ccc(-c4ccccc4)cc3)ccc2OC[C@H](C)NC[C@H]1C,i
C[C@H](CO)N1C[C@H](C)[C@@H](CN(C)Cc2ccc(Cl)c(Cl)c2)OCCCC[C@H](C)Oc2ccc(NS(C)(=O)=O)cc2C1=O,i
COCC#Cc1cnc2c(c1)C(=O)N([C@@H](C)CO)C[C@H](C)[C@@H](CN(C)S(=O)(=O)c1ccccc1)O2,i
O=C(C[C@H]1C[C@H]2c3cc(NC(=O)Cc4ccncc4)ccc3O[C@H]2[C@H](CO)O1)NCC1CC1,i
Cc1noc(C)c1NC(=O)N[C@H]1C=C[C@H](CC(=O)NCCCN(C)C)O[C@H]1CO,i
COC(=O)C1=C(C)NC(C)=C(C(=O)OC)C(N2C(=O)CCC2=O)C1 (stereo not drawn),i
Cc1ccc(-c2cnc3c(c2)C(=O)N([C@@H](C)CO)C[C@@H](C)[C@@H](CN(C)C(=O)Cc2ccccc2)O3)cc1,i
CC(C)NC(=O)N(C)C[C@@H]1Oc2ncc(-c3ccc(C(=O)N(C)C)cc3)cc2C(=O)N([C@@H](C)CO)C[C@H]1C,i
COc1ccc(S(=O)(=O)Nc2ccc3c(c2)C(=O)N([C@@H](C)CO)C[C@H](C)[C@H](CN(C)Cc2ccncc2)O3)cc1,i
C[C@H]1CN([C@@H](C)CO)C(=O)Cc2cc(NC(=O)Cc3ccccc3)ccc2O[C@@H]1CN(C)C(=O)Nc1cccc2ccccc12,i
CC(C)(C)[S@](=O)N1Cc2cc(C(=O)NCCN3CCCCC3)nc(-c3cccc(-c4ccc(C#N)cc4)c3)c2[C@@H]1CCO,i

Next structures
Structure,FGF22 binding
COc1ccc(S(=O)(=O)Nc2ccc3c(c2)C(=O)N([C@@H](C)CO)C[C@@H](C)[C@H](CN(C)C(=O)Nc2ccc(C(F)(F)F)cc2)OCCCC[C@@H](C)O3)cc1,i
CCCC(=O)Nc1ccc2c(c1)OC[C@@H](C)N(CCC(F)(F)F)C[C@@H](C)[C@H](OC)CN(C)C2=O,i
N#C[C@H]1N[C@H](CO)[C@H]1c1ccc(-c2cccc(F)c2)cc1,i
CC(C)NC(=O)Nc1ccc2c(c1)CC(=O)N([C@@H](C)CO)C[C@H](C)[C@@H](CN(C)C(=O)Nc1ccc(F)cc1)O2,i
C[C@@H]1CN([C@H](C)CO)S(=O)(=O)c2ccc(/C=C/c3ccccc3)cc2O[C@@H]1CN(C)C(=O)C1CC1,i
CCC(=O)Nc1ccc2c(c1)OC[C@@H](C)N(Cc1ccccc1F)C[C@@H](C)[C@H](OC)CN(C)C2=O,i
C[C@@H]1CN([C@@H](C)CO)C(=O)c2cc(NC(=O)Nc3ccc(C(F)(F)F)cc3)ccc2O[C@H]1CN(C)S(=O)(=O)c1cn(C)cn1,i
C[C@H]1CN([C@@H](C)CO)C(=O)c2cc(-c3ccncc3)cnc2O[C@@H]1CN(C)C(=O)CN1CCOCC1,i
O=C(C[C@H]1C[C@@H]2c3cc(NS(=O)(=O)c4ccccc4)ccc3O[C@@H]2[C@H](CO)O1)NCC1CC1,i
CN1C(=O)c2cc(NC(=O)Nc3cccc(Cl)c3)ccc2OC[C@H]2O[C@@H](CC(=O)NCCc3ccncc3)CC[C@H]21,i
C[C@@H]1CN([C@H](C)CO)C(=O)c2cc(NC(=O)Cn3cnnn3)ccc2O[C@@H]1CN(C)S(=O)(=O)c1ccc(Cl)cc1,i
N#C[C@@H]1[C@H](c2ccc(C#Cc3cccc(F)c3)cc2)[C@@H](CO)N1C(=O)C1CCC1,i
O=C(c1ccc2c(c1)OCO2)N1CC(=O)N2[C@@H](CO)[C@H](c3ccc(C#CCC4CCCC4)cc3)[C@@H]2C1,+
N#C[C@H]1[C@H](c2ccccc2)[C@H](CO)N1C(=O)c1ccc2c(c1)OCO2,i
CNC[C@@H]1Oc2cc(C#CCC3CCCC3)ccc2S(=O)(=O)N([C@@H](C)CO)C[C@@H]1C,i
CN(C)CC(=O)N1CC2(C1)[C@H](c1ccccc1)[C@@H](CO)N2S(C)(=O)=O,i
C[C@@H](NC(=O)C[C@@H]1C[C@@H]2c3cc(NC(=O)CC4CC4)ccc3O[C@@H]2[C@H](CO)O1)c1ccccc1,i
C[C@H]1CN([C@@H](C)CO)S(=O)(=O)c2ccc(-c3ccc(F)cc3)cc2O[C@@H]1CN(C)C,i
COc1ccc(NC(=O)Nc2ccc3c(c2)C(=O)N([C@H](C)CO)C[C@@H](C)[C@H](CN(C)C(=O)Nc2ccc4c(c2)OCO4)O3)cc1,i
COc1ccccc1-c1ccc2n(c1=O)C[C@@H]1[C@@H](CO)[C@H](C(=O)NC3CCC3)N(C(C)=O)[C@H]21,i
CCCNC(=O)Nc1ccc2c(c1)C(=O)N(C)[C@H]1CC[C@@H](CC(=O)NC)O[C@H]1CO2,i
O=C(Nc1ccccc1)N1C[C@@H]2[C@H](c3ccccc31)[C@@H](CO)N2CC1CCCC1,i
C[C@H](CO)N1C[C@H](C)[C@@H](CN(C)C(=O)Cc2ccccc2)Oc2ncc(-c3cncnc3)cc2C1=O,i
CC(C)CC#Cc1cnc2c(c1)C(=O)N([C@H](C)CO)C[C@H](C)[C@@H](CN(C)S(=O)(=O)c1cn(C)cn1)O2,i
C[C@@H]1CCCCO[C@H](CN(C)C(=O)Nc2ccc(F)cc2)[C@H](C)CN([C@H](C)CO)C(=O)c2cc(NS(=O)(=O)c3ccc(F)cc3)ccc2O1,i
C[C@H]1CN([C@@H](C)CO)S(=O)(=O)c2ccc(-c3ccc(C#N)cc3)cc2O[C@@H]1CN(C)C(=O)Nc1cc(F)ccc1F,i
Cc1ccc(-c2cnc3c(c2)C(=O)N([C@@H](C)CO)C[C@H](C)[C@@H](CN(C)C(=O)Cc2cccnc2)O3)cc1,i
CC(=O)NC[C@H]1[C@H](c2ccc(-c3ccccc3F)cc2)[C@H](CO)N1C(C)=O,i
C[C@@H]1CN([C@H](C)CO)C(=O)c2ccccc2-c2ccccc2CO[C@H]1CN(C)C(=O)[C@H]1CCCN1C,i
COc1ccc(S(=O)(=O)Nc2ccc3c(c2)C(=O)N([C@H](C)CO)C[C@H](C)[C@H](CN(C)C(=O)NC2CCCCC2)O3)cc1,i

Entries from the list above that have an aryl methoxy group, in the order listed:
Structure,FGF22 binding
COc1cccc(-c2ccc([C@H]3[C@H]4CN(C(=O)c5ccc6c(c5)OCO6)CCCCN4[C@H]3CO)cc2)c1,i
COc1cccc(-c2cnc3c(c2)C(=O)N([C@@H](C)CO)C[C@H](C)[C@@H](CN(C)Cc2ccc(F)cc2)O3)c1,i
COc1ccc(S(=O)(=O)Nc2ccc3c(c2)C(=O)N([C@@H](C)CO)C[C@H](C)[C@H](CN(C)Cc2ccncc2)O3)cc1,i
COc1ccc(S(=O)(=O)Nc2ccc3c(c2)C(=O)N([C@@H](C)CO)C[C@@H](C)[C@H](CN(C)C(=O)Nc2ccc(C(F)(F)F)cc2)OCCCC[C@@H](C)O3)cc1,i
COc1ccc(NC(=O)Nc2ccc3c(c2)C(=O)N([C@H](C)CO)C[C@@H](C)[C@H](CN(C)C(=O)Nc2ccc4c(c2)OCO4)O3)cc1,i
COc1ccccc1-c1ccc2n(c1=O)C[C@@H]1[C@@H](CO)[C@H](C(=O)NC3CCC3)N(C(C)=O)[C@H]21,i
COc1ccc(S(=O)(=O)Nc2ccc3c(c2)C(=O)N([C@H](C)CO)C[C@H](C)[C@H](CN(C)C(=O)NC2CCCCC2)O3)cc1,i

The results go on:
SMILES | FGF22 binding
COc1ccc(CN(C)C[C@H]2OCCCC[C@@H](C)Oc3ccc(NC(=O)CCC(F)(F)F)cc3C(=O)N([C@H](C)CO)C[C@@H]2C)cc1 | i
O=S(=O)(N[C@@H]1CC[C@@H](CCn2cc(-c3ccccc3F)nn2)O[C@H]1CO)c1ccc(F)cc1 | i
C[C@H]1CN([C@@H](C)CO)C(=O)c2cc(NS(=O)(=O)c3ccccc3)ccc2O[C@@H]1CN(C)Cc1ccc(Cl)c(Cl)c1 | i
COc1ccc(-c2ccc([C@@H]3[C@@H](C#N)N(C(=O)C4CCOCC4)[C@H]3CO)cc2)cc1 | i
COC(=O)C1=C(C)N(C)C(=NCc2cccc(C(F)(F)F)c2)NC1c1cccc(Cl)c1 (stereo not drawn) | i
C[C@H](O)[C@@H]1C(=O)N2CCc3c([nH]c4c(-c5ccc6c(c5)OCO6)cccc34)[C@@H]2C[C@@H]1N(C)C(=O)NC1CCCCC1 | i
N#C[C@@H]1[C@@H](c2ccc(-c3cncnc3)cc2)[C@H](CO)N1C(=O)Cc1ccccc1 | i
O=C(NCC[C@H]1CC[C@H](NC(=O)C2CCCC2)[C@H](CO)O1)c1ccc(F)cc1 | i
CCCNC(=O)N(C)C[C@H]1Oc2ncc(C#CCC3CCCC3)cc2C(=O)N([C@H](C)CO)C[C@@H]1C | i
CO[C@H]1CN(C)C(=O)c2ccc(NC(=O)Nc3ccccc3F)cc2OC[C@@H](C)N(CC2CC2)C[C@H]1C | i

A different layout for some results above.
FGF22 binding,molecule
i,COC(=O)C1=C(C)N(C)C(=NCc2cccc(C(F)(F)F)c2)NC1c1cccc(Cl)c1 (stereo not drawn)
i,C[C@H](O)[C@@H]1C(=O)N2CCc3c([nH]c4c(-c5ccc6c(c5)OCO6)cccc34)[C@@H]2C[C@@H]1N(C)C(=O)NC1CCCCC1

(cont.)
SMILES | FGF22 binding
C[C@@H]1CCCCO[C@H](CN(C)Cc2ccccc2)[C@H](C)CN([C@@H](C)CO)C(=O)c2cc(NS(C)(=O)=O)ccc2O1 | i
CS(=O)(=O)N1[C@@H]2c3cccc(=O)n3C[C@H]1[C@H](CO)[C@H]2C(=O)NCc1ccccc1 | i
CCCC(=O)Nc1ccc2c(c1)OC[C@H](C)N(C)C[C@@H](C)[C@@H](OC)CN(C)C2=O | i
Cc1ccc(S(=O)(=O)Nc2ccc3c(c2)C(=O)N([C@@H](C)CO)C[C@H](C)[C@@H](CN(C)C(=O)Nc2ccc4c(c2)OCO4)OCCCC[C@@H](C)O3)cc1 | i
C[C@H](CO)N1C[C@H](C)[C@H](CN(C)Cc2ccc(C(=O)Nc3ccccc3N)cc2)Oc2ccc(NS(=O)(=O)c3cccs3)cc2CC1=O | i
C[C@H]1CN([C@@H](C)CO)C(=O)c2cccc(NC(=O)Nc3ccc(F)cc3)c2O[C@@H]1CN(C)Cc1ccc(-c2ccccc2)cc1 | i
O=C(C[C@@H]1CC[C@@H]2[C@H](COC[C@H](O)CN2S(=O)(=O)c2ccccc2)O1)NCC1CCCCC1 | i
COc1ccc(NC(=O)Nc2ccc3c(c2)CC(=O)N([C@@H](C)CO)C[C@@H](C)[C@H](CN(C)C(=O)Nc2ccc4c(c2)OCO4)O3)cc1 | i
C[C@@H]1CN([C@@H](C)CO)C(=O)c2cc(NC(=O)CCCN(C)C)ccc2O[C@@H](C)CCCCO[C@@H]1CN(C)C(=O)Cc1ccccc1 | i
COc1ccc(S(=O)(=O)Nc2cccc3c2O[C@@H](CN(C)Cc2ccc(C(F)(F)F)cc2)[C@H](C)CN([C@@H](C)CO)C3=O)cc1 | i
CCCNC(=O)N(C)C[C@@H]1Oc2cc(C#CC(C)C)ccc2S(=O)(=O)N([C@H](C)CO)C[C@H]1C | i
CC(C)CC#Cc1ccc2c(c1)O[C@H](CN(C)C(=O)Nc1ccccc1F)[C@H](C)CN([C@@H](C)CO)S2(=O)=O | i

The list is partial. The share of hits here may be higher or lower than overall.
